# MgrA DNA FP: modulators of Staphylococcus aureus MgrA DNA binding | 0.13% of 84,000 active | fluorescence polarization | inhibition, %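 (about 10 µg/mL by stock and volumes)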;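 active = above 50% in either of two replicates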;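 note: 0% = protein plus DNA without compound and 100% = DNA alone without protein; higher means less MgrA bound to DNA so lower polarization; one replicate is shown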
# S aureus helic: blocks Staphylococcus aureus DNA helicase; purified S. aureus helicase, fluorescence unwinding assay; about half of the hits fall short of the stated cut; inhibition, %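 (tested at about 80 µM)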; 0.05% of 120,000 active;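 active = both duplicates at 50% or more, or one of them with a favoured structure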;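 note: 0% = mean of negative control wells and 100% = mean of positive control wells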
# An asterisk follows results filed as active; . = no result given. Not all compounds are listed. The share of hits here may be higher or lower than overall.
SMILES,MgrA DNA FP,S aureus helic
O=C(CSc1ccc2ccccc2c1)N1CCN(c2ccccc2F)CC1,1.8,-19
Cc1cc2oc(C(=O)NC3CCS(=O)(=O)C3)cc(=O)c2cc1C (stereo not drawn),.,27
CC(NC(=O)Cn1ncc2c1-c1ccccc1OC2)c1ccc2c(c1)OCCO2 (stereo not drawn),.,-16
O=S(=O)(c1ccc(F)cc1)c1cc(C(F)(F)F)cc(C(F)(F)F)c1,.,-11
Cc1ccc(-c2nn(CC(=O)Nc3cccnc3)c(=O)c3ccccc23)cc1,-2.4,-4
O=S(=O)(NCCCN1CCc2ccccc2C1)c1ccc(-c2cc(C(F)(F)F)no2)s1,.,22
Cc1ccc2nc(N3CCN(Cc4nnnn4Cc4ccccc4)CC3)c(C#N)cc2c1,-0.3,-2
N#Cc1ccccc1CSc1nnnn1-c1ccccc1,.,-1
CC[C@H](CO)Nc1nc(NCc2ccccc2)c2ncn(C(C)C)c2n1,-0.8,.
COc1cc2c(cc1OC)C(CNC(=O)OCc1ccccc1)NCC2 (stereo not drawn),-3.4,16
O=C(Cn1nnc2ccccc2c1=O)NC(=O)NCc1ccccc1,.,-4
CSc1ccc(-c2sc(C)nc2C)nn1,.,12
O=c1cc(-c2ccccc2)nc(SCCOc2ccc3c(c2)OCO3)[nH]1,1.8,5
CCC(=O)Oc1ccc2c(C)c(C)c(=O)oc2c1,-0.4,10
COc1ccccc1/C=C/CN1CC(C)OC(C)C1 (stereo not drawn),-0.2,20
Cc1cc(C)n(Cc2ccc(C(=O)O)cc2)n1,-4.9,-2
Cc1cc(N/C=C2\CCCCC2=O)no1,1.6,-20
O=C(Nc1noc2ccccc12)c1cc2c(s1)-c1ccccc1CC2,.,-27
Cc1c(C(=O)CSc2n[nH]c(=O)n2-c2cccnc2)sc2ccc(Cl)cc12,-1.1,.
CC(N)c1cc(F)c(Cl)cc1Cl (stereo not drawn),.,12
COC(=O)C1=C(O)/C(=C\c2ccccc2OC)N=C1C,2.0,13
CCOC(=O)C1=C(CSc2nc3ccccc3c(=O)n2C(C)CC)NC(=O)NC1C (stereo not drawn),.,12
N#Cc1cn(-c2ccc([N+](=O)[O-])cc2)nc1N,-1.4,.
CC1(C)C(/C=C/c2cccc(I)c2)=[N+]([O-])C(C)(C)N1O,.,-20
CCOC(=O)CSc1nnc(-c2ccc(S(=O)(=O)NCc3cccs3)cc2)o1,-0.6,-1
# Next part.
SMILES,MgrA DNA FP,S aureus helic
O=C(Cc1ccc(S(=O)(=O)N2CCOCC2)s1)Nc1nnc(C2CC2)s1,.,2
CC(C)(C)NS(=O)(=O)c1ccc(NC(=O)Nc2ccc(Cl)cc2)cc1,0.4,13
Cc1cc2cc(CNC(=O)/C=C\c3ccccc3)ccc2n1C,.,16
O=c1oc2ccc(NS(=O)(=O)c3ccc(F)cc3)cc2s1,.,42
CN(C)/C=C/C(=O)c1nn(-c2ccc(F)cc2)ccc1=O,.,18
CC1CC(C)CN(S(=O)(=O)c2ccc(NC(=O)C3COc4ccccc4O3)cc2)C1 (stereo not drawn),1.6,2
c1cnc2sc(-n3cccc3)nc2c1,3.5,.
CCCCC1CCC(C(=O)Nc2c3c(nn2-c2ccccc2C)CS(=O)C3)CC1 (stereo not drawn),.,21
O=C(O)CCN1C(=O)CC2(CCCCC2)C1=O,-2.9,7
CC(C)(C)CC(=O)NC1CCCc2ccccc21 (stereo not drawn),.,-7
CCOC(=O)C1CCCCN1S(=O)(=O)c1ccc2c(c1)CCCC(=O)N2 (stereo not drawn),.,-4
O=C(NCCC1=CCCCC1)c1ccc2c(c1)ncn2-c1cccc(F)c1,0.0,2
O=C(Nc1cccc(F)c1C(=O)Nc1ccc(F)c(Cl)c1)c1cccs1,0.2,.
Nc1nc(SCc2cccnc2)[nH]c(=O)c1NC(=O)c1ccco1,.,5
CSc1cccc(NC(=O)/C=C/C(=O)O)c1,-1.9,.
CCOC(=O)c1c2ccc(O)cc2n2ccccc12,29,.
CC(C)(CC(=O)O)CC(=O)NC1CCCCNC1=O (stereo not drawn),.,-11
CCc1ccc(-c2ccc(Br)cc2)nc1,-1.1,5
O=C(O)c1ccc(S(=O)(=O)N(Cl)Cl)cc1,-4.0,.
Cc1cc(C)n(CCOc2nonc2N)n1,0.1,9
O=C(c1cccc2ccccc12)N1CCOCC1,.,14
O=C(CN1CCC(Cc2ccccc2)CC1)Nc1ccc2c(c1)OCCO2,.,16
CCOC(=O)CSc1nc2c(c(=O)n1-c1ccc(C)cc1)C1(CCCC1)Cc1ccccc1-2,-1.6,.
CN(C)S(=O)(=O)c1ccc2c(c1)C(=O)c1cc(S(=O)(=O)N(C)C)ccc1-2,.,16
O=C(CCC(=O)N1CCOc2ccccc21)N1CCN(c2ccccc2)CC1,.,30

# 5 compounds from above, ordered by SMILES length, lowest first:
SMILES,MgrA DNA FP,S aureus helic
CCOC(=O)c1c2ccc(O)cc2n2ccccc12,29,.
Cc1cc2cc(CNC(=O)/C=C\c3ccccc3)ccc2n1C,.,16
Nc1nc(SCc2cccnc2)[nH]c(=O)c1NC(=O)c1ccco1,.,5
O=C(Cc1ccc(S(=O)(=O)N2CCOCC2)s1)Nc1nnc(C2CC2)s1,.,2
CN(C)S(=O)(=O)c1ccc2c(c1)C(=O)c1cc(S(=O)(=O)N(C)C)ccc1-2,.,16

# More records.
SMILES,MgrA DNA FP,S aureus helic
O=C(Nc1c(F)cccc1F)c1cccc(Oc2ccccc2)c1,1.4,-20
CN(C)c1ccc(CNC(=O)CCC(=O)N2CCSc3ncccc32)cc1,.,0
CC1CC(=O)C2=C(C1)OC(N)=C(C#N)C2c1ccccc1 (stereo not drawn),0.2,.
C[C@@H](NC(=O)c1cccnc1)c1ccccc1,.,-7
Cc1cc(C)c(C(=O)Nc2cccnc2)c(CC(C)(C)C(=O)O)c1,.,-15
CCc1ccc(NC(=O)Nc2nnc(N3CCCCC3C)s2)cc1 (stereo not drawn),.,-3
CCOC(=O)C1=C(CC(=O)Nc2ccc(OC)cc2)C(=O)N(c2ccc(F)cc2)C1C (stereo not drawn),1.7,.
Cc1ccc(C)c(-n2nnnc2SCC(=O)N=c2sc3ccccc3n2C)c1,.,-8
CCOc1ccc(N=C2SC(C(=O)O)CC(=O)N2CCc2ccc(OC)c(OC)c2)cc1 (stereo not drawn),0.8,.
CN(C)C(=O)COC(=O)c1ccccc1I,.,-10
C=CCOc1cc(=O)[nH]c2ccccc12,2.1,.
O=C1C=C(NC2CC2)C2(CCCCC2)O1,.,6
COC(=O)CSc1ncn(-c2ccccc2)n1,-0.4,0
COC(=O)COc1c(C)[nH]ccc1=O,-0.7,.
CC1CC(C)CN(C(=O)c2cccs2)C1 (stereo not drawn),-1.8,12
CC(C)NC(=O)C1(O)c2ccccc2NC(=O)N1c1ccc(Cl)c(Cl)c1 (stereo not drawn),0.7,10
CCOC(=O)CC(=O)Nc1ccsc1C(=O)OC,0.2,10
CC(C)N(C(=O)CSc1nnc(CSc2ncccn2)n1C)C(C)C,-0.2,-5
COc1ccc(CCNC(=O)c2cn(CC(C)C)c(=O)c3cc(OC)c(OC)cc23)cc1OC,4.0,7
CCSc1nc2c(c(=O)[nH]c(=O)n2C)n1C,.,8
CN(C)c1ccc(C(CC(=O)O)NC(=O)c2ccc(Cl)cc2)cc1 (stereo not drawn),5.5,7
COc1ccc(C(C#N)N2CCN(C(C#N)c3ccc(OC)cc3)CC2)cc1 (stereo not drawn),.,2
CCCCC(=O)Nc1nnc(-c2ccc(Cl)cc2)o1,.,21
COc1cc(C(=O)N(Cc2cccnc2)Cc2ccc(C)o2)cc(OC)c1OC,.,7
CCCCn1nnnc1SCC(=O)NCc1ccccc1,14,5
# (more compounds)
SMILES,MgrA DNA FP,S aureus helic
O=C(Sc1ccccc1)c1cccnc1Oc1ccccc1,2.5,.
COc1ccccc1NCC(=O)N/N=C1\CCS(=O)(=O)c2ccc(F)cc21,.,-12
CSc1cc(-c2ccc(Cl)cc2)nc(-c2cccs2)c1,2.3,.
COc1ccc(OC)c(NC(=O)c2n[nH]n3c2nc(=O)c2ccccc23)c1,.,-17
CC1(C)CC(NCc2ccccc2F)CC(C)(C)N1,2.3,-6
NNC(=O)C(O)(c1ccccc1)c1ccccc1,.,-4
CCN(CC)S(=O)(=O)c1ccc(NN=c2c(=O)c3ccccc3c2=O)cc1,.,-8
O=C(O)C(Cc1ccccc1)N=Cc1c(O)c2ccccc2oc1=O (stereo not drawn),.,18
CCC(=O)Nc1cccc(NC(=O)COc2cc(C)cc(C)c2)c1,4.5,2
Cn1c(CC(=O)Nc2ccc(Cl)cc2)nnc1SCc1nc2ccccc2c(=O)[nH]1,2.7,10
Cc1ccc(SC(C)C(=O)NCC2CCCO2)cc1 (stereo not drawn),-3.9,14
CC(NC(=O)c1nn2c(c1Br)NC(c1cccs1)CC2C(F)(F)F)c1ccccc1 (stereo not drawn),0.1,.
Cc1ccccc1OCc1nc2c3cnn(C)c3ncn2n1,.,-26
Cc1cccc2cc(CNCC3CCCO3)c(Cl)nc12 (stereo not drawn),1.2,0
COC(=O)c1ccc(-c2ccco2)[nH]1,3.2,19
Cc1c(C)c(NC(=O)/C=C/C(=O)O)c(C)c(C)c1NC(=O)/C=C/C(=O)O,-2.0,.
CCOc1ccc2c(c1)sc(=N)n2Cc1ccc(Cl)cc1,-2.2,6
CC(=O)Nc1ccc(S(=O)(=O)N(C)c2ccc(O)c(N=Nc3cccc4c(=O)[nH][nH]c(=O)c34)c2)cc1,.,-10
COc1ccc2nc(Cl)c(CN(C(=O)c3ccco3)C3CCCC3)cc2c1,4.1,3
Cc1nn2c3c(sc2nc1=O)C(=O)N(c1ccc(F)c(Cl)c1)C3=O,.,5
N#C/C=C/c1ccc(C(=O)O)cc1,-2.6,-2
COc1ccc(/C=C2/SC(=S)N(CCC(=O)Nc3nccs3)C2=O)cc1,.,-20
Cc1sc2ncn3ncnc3c2c1C,-2.0,0
COc1ccc(-c2nnc3[nH]c(=O)cc(C)n23)cc1,.,4
COc1ccc(CCNC(=O)c2cn(C)c(=O)c3cc(OC)c(OC)cc23)cc1OC,.,1
# Further records follow:
SMILES,MgrA DNA FP,S aureus helic
CCOC(=O)C1=C(CSc2nnc(-c3cccs3)n2-c2ccccc2)NC(=O)NC1C (stereo not drawn),.,-6
CC(C)(C)c1csc(-c2sccc2COc2ccc(Cl)cc2)n1,-1.8,.
CCN(CC)c1c(S(=O)(=O)c2ccc(C)cc2)cnc2ccccc12,0.0,17
Cc1ccc(Nc2nnc(SCC(=O)N(C)C)s2)cc1,.,4
O=c1nc(Nc2ccc(OC(F)(F)F)cc2)oc2ccccc12,-1.5,.
NC(C(=O)O)c1ccsc1 (stereo not drawn),-0.5,.
O=C1Nc2ccc(S(=O)(=O)Nc3ccccc3)c3cccc1c23,-1.9,11
COc1ccc2nc3oc(C(=O)N4CCCCC4)cc3cc2c1,.,4
CCc1nn2c(=O)cc(COc3ccc(/C=C4/C(=N)N5C=CSC5=NC4=O)cc3OC)nc2s1,1.1,4
COc1ccc(C(=O)Nc2nnc(CCS(=O)(=O)c3ccc(Cl)cc3)s2)cc1OC,-0.2,.
CC(C)CNc1ncnc2c1c(-c1ccccc1)cn2-c1ccccc1,0.6,8
Cc1cc(OCc2c(C)c(C)c(C)c(C)c2C)c2cc(F)ccc2n1,-0.6,.
CCOC(=O)C1CCN(C(=O)CN2C(=O)c3ccccc3C2=O)CC1,-0.1,.
O=C(O)c1ccc(CN2C(=O)CSc3ccccc32)o1,-2.6,6
Cc1csc(=O)n1CC(=O)OCC(=O)N(C)c1c(N)n(Cc2ccccc2)c(=O)[nH]c1=O,.,15
COC(=O)c1ccc2c(=O)[nH]c(COC(=O)c3ccc4c(c3)OCCO4)nc2c1,.,2
N#C/C(C(N)=O)=C1/C(=O)Nc2ccc(Br)cc21,5.9,12
CSc1c(C#N)c(-c2cccs2)nn1C,-0.5,.
O=C(Nc1ncn[nH]1)c1ccc(Cl)cc1Cl,-1.5,6
CC(C)N(CC(N)=O)c1ncnc2sc3c(c12)CCC3,.,-5
CCCn1cnc2c(oc3ccccc32)c1=O,2.6,7
CC1=CC=CC2=NC(=O)CC(C)(C(=O)O)N12 (stereo not drawn),-2.6,12
CN1c2ccccc2C(O)=C(C(=O)Nc2ccc(OC(F)(F)F)cc2)S1(=O)=O,0.4,.
O=C(c1n[nH]c(=O)c2ccccc12)N1CCN(C2c3ccccc3-c3ccccc32)CC1,.,-4
NS(=O)(=O)/C=C/c1ccc(Cl)cc1,.,5
# Following part:
SMILES,MgrA DNA FP,S aureus helic
Cc1ccc2cc(C)c(Nc3ccc4c(c3)OCO4)nc2c1,0.5,-10
CC(C)NC(=O)NC(C)C,.,-15
CCc1cc2c(=O)c(-c3ccc4c(c3)OCO4)c(C)oc2cc1OC1OC(CO)C(O)C(O)C1O (stereo not drawn),-0.4,.
O=C(O)c1cc2c(o1)CCC/C2=N/O,.,24
O=c1[nH]c2ccccc2cc1CO,.,-15
CC(C)CN(CC(C)C)C(=O)c1cc(-c2ccccc2)n[nH]1,-0.3,4
CC1CCCCN1C(=O)c1oc(=O)c2ccccc2c1-c1ccccc1 (stereo not drawn),0.2,11

# Grouped by structure: the entries above containing a CF3 group
SMILES,MgrA DNA FP,S aureus helic
O=S(=O)(c1ccc(F)cc1)c1cc(C(F)(F)F)cc(C(F)(F)F)c1,.,-11
O=S(=O)(NCCCN1CCc2ccccc2C1)c1ccc(-c2cc(C(F)(F)F)no2)s1,.,22
CC(NC(=O)c1nn2c(c1Br)NC(c1cccs1)CC2C(F)(F)F)c1ccccc1 (stereo not drawn),0.1,.
O=c1nc(Nc2ccc(OC(F)(F)F)cc2)oc2ccccc12,-1.5,.
CN1c2ccccc2C(O)=C(C(=O)Nc2ccc(OC(F)(F)F)cc2)S1(=O)=O,0.4,.

# Bioassay records: PubChem BioAssay, ICCB-Longwood Screening Facility, Harvard Medical School
